Source: PubChem BioAssay (several laboratories)
Vif A3G = HIV-1 Vif–A3G interaction blockers – biochemical, TR-FRET, GST-Vif 1-94, biotin-A3G peptide, dose response retest, primary screen (AID 1117319). TR-FRET GST-Vif / biotin-A3G peptide binding; higher % means a stronger effect; test concentration not given here; strong numbers were not always called active. 0.57% of 260,000 active. inhibition, %, or IC50 in µM where a hit was titrated;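 active = above the screen mean plus three standard deviations and confirmed in dose response; inconclusive = results disagree or hit not tested in dose response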;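 also: Vif residues 1-94 fused to GST binding biotinylated APOBEC3G peptide 110-148; 0% = full assay without inhibitor and 100% = GST in place of GST-Vif; retest series ran down from 100 µM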
B2AR ag = activates human beta-2 adrenergic receptor causing internalization | Am2.2-beta2AR cells, FAP receptor internalization, flow cytometry; reference of the scale not given here | response, % (no concentration beside the values) | 0.43% of 340,000 active;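 active = response above a set limit, near 3 SD of response in nonfluorescent compounds, cut at about 42% in these data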;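 also: stock transfer was 100 nL into about 11 µL; a reference agonist was the positive control; negative values mostly stem from fluorescent compounds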
HNF4A DNA FP = change in binding of human HNF4 alpha to DNA; HNF4a-FITC DNA binding, fluorescence polarization, 1 h; activity change, % at 10 µM; 0.3% of 360,000 active; AID 1224865; in the data active = activity change above about 30%, passing the limit was not always enough;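 also: controls were the assay level and a saturating level of protein; the project sought stronger binding though the title names inhibitors; some compounds called inactive have numbers as strong as hits; positive values seem to mean higher polarization but the record does not say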
Target sequence (P41235 whole entry, looked up): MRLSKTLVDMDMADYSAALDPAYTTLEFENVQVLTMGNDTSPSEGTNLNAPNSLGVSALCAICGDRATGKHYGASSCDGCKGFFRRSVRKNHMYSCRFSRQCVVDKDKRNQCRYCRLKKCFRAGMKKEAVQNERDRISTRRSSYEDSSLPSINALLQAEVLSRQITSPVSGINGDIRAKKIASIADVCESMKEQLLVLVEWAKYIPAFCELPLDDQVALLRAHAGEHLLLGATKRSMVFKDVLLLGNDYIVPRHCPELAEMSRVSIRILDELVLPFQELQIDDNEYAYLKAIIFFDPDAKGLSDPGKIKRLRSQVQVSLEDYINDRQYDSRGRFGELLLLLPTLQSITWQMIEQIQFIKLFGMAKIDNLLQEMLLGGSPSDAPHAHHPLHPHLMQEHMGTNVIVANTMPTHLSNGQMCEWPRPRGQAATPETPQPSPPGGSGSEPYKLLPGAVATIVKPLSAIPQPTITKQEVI
Bfl-1 A1 inh = inhibitors of the anti-apoptotic protein A1, read as caspase activation; MEF A1-2A-BIM cells, Caspase-Glo 3/7 luminescence, 3 h; percent of clofoctol response, vehicle zero; caspase activation, % (concentration not given with the values); 0.066% of 330,000 active;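 active = over half of replicate activation scores above 10%, or exactly half above 10 with the replicate mean above 10; inconclusive = replicate mean below 10 yet half the replicates above 10; inactive = over half of replicates below 10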;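 also: wells of about 30 µL received 50 nL stock; many hits fall short of the cut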
LANA-H2B inh = blocks KSHV LANA binding to histone H2A/H2B; cell-free LANA-H2A/H2B peptide, fluorescence polarization; Q9QR71; 0.6% of 320,000 active; inhibition, % (test concentration not listed); in the data active = inhibition mostly above about 10%, no sharp cut-off; inactive = mostly below about 6.7%;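 also: stock transfer was 7.5 nL into about 10 µL; 0% = median of vehicle wells and 100% = median of positive control wells; one replicate is shown; the record names a cut of 25% in any replicate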
E coli growth = blocks Escherichia coli growth; OD600, 23 h; stronger effect = lower value; OD600 absorbance (no concentration beside the values); 0.21% of 330,000 active; AID 1053175;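 active = OD600 absorbance below the run mean of sample wells minus 3.6 SD, in any replicate, cut at about 0.56 in these data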;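 also: stock transfer was 300 nL into about 60 µL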
UCH37 DUB inh = human UCH37 deubiquitinating enzyme inhibition; inhibition, % (concentration not given with the values); 0.33% of 330,000 active; AID 588478; purified proteasome/UCH37, Ub-AMC cleavage fluorescence; Q9Y5K5;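 active = mean of two replicates above 20%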;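 also: 0% = compound-free wells with enzyme and 100% = wells lacking proteasome; stock transfer was 100 nL into about 20 µL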
Target sequence (Q9Y5K5 whole entry, looked up): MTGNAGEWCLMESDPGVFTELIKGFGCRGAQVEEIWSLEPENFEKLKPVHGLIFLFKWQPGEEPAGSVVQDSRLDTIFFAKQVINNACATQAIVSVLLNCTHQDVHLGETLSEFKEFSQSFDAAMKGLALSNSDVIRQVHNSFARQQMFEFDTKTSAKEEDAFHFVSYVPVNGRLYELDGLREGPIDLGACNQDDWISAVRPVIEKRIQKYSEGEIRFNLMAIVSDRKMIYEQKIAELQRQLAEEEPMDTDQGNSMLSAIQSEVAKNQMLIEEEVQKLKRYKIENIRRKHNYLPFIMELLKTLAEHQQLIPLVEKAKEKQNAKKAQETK
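Assay system: Proteasome-bound UCH37. Buffer or medium: pH 7.4 Tris-HCl (50 mM) with ovalbumin, ATP-MgCl2, DTT. Incubation: 30 min preincubation with enzyme, 25 min cleavage at room temperature. Measured by: fluorescence, ex 355 nm, em 460 nm. Read-out basis: percent inhibition. Control set: wells without proteasome as full block, compound-free enzyme plus substrate as uninhibited.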
Numbers without * were called inactive; ? = inconclusive; / = no result given. Some of the compounds tested; rates above refer to the full screens.

Every second line gives: Vif A3G, B2AR ag, HNF4A DNA FP, Bfl-1 A1 inh, LANA-H2B inh, E coli growth, UCH37 DUB inh
CC(=NCC1CCCO1)c1c(O)n(C2CCCCC2)c(=O)[nH]c1=O (centres undefined)
  -4%, -11, 0.1, 1.5, 1.8, 0.65, 6.8
C=CC[C@@H](CC/C=C/C=C/CC/C=C\[C@@H]1CSC([C@@H]2C[C@@H]2C)=N1)OC
  /, 20, 2.4, /, /, 0.69, 5.0
COC(=O)C1=C(c2ccc(-c3ccccc3)c(F)c2)C[C@@H]2CC[C@H]1N2C(=O)NCCc1ccccc1
  /, 1, 2.5, -0.8, 3.2, /, 5.2
CC1CCCN(CC(=O)N2CCCc3ccccc32)C1 (centres undefined)
  -4%, -1, -0.3, -0.4, -0.8, 0.69, 4.4
CCOP(=O)(OCC)c1cc(CC)ccc1O
  -4%, -3, -0.8, 0.0, 3.7, 0.71, 0.9
C=CCN1CCc2cccc3c2[C@H]1Cc1ccc(O)c(O)c1-3
  15µM*, -8, 1.7, 0.6, 1.9, /, /
O=C(O)c1cccc2c1NC(c1cccc([N+](=O)[O-])c1)C1CC(Sc3ccccc3[N+](=O)[O-])C(Cl)C21 (centres undefined)
  ?, 2, -17, /, /, 0.7, 3.1
CCOC(=O)C1(c2ccccc2)CCN(CCC(C#N)(c2ccccc2)c2ccccc2)CC1
  /, 35, 1.8, 0.9, -2.6, 0.71, 0.2
Cc1c(CCN)ccc2c1[nH]c1ccccc12
  5%, -5, -1.6, -0.3, 2.0, /, /
Cc1nc2ccccc2n1C1CCN(Cc2nnnn2CCc2ccccc2)CC1
  -1%, 7, 2.7, 0.0, 0.4, 0.7, 1.1
Cn1cccc1/C=C1/C(=O)NC(=O)N(Cc2ccccc2)C1=O
  3.3µM*, 15, 4.4, 0.4, 4.7, /, /
CC(N)C(=O)c1ccco1 (centres undefined)
  1%, 4, -0.6, -1.0, -0.8, 0.77, 1.3
CC12CC(=O)C3C(CCC4CC(=O)C=CC43C)C1CCC2=O (centres undefined)
  -10%, -13, -1.1, /, /, 0.71, 3.3
Cc1cc(Cl)nc(N)n1
  /, -7, -1.9, 0.0, -3.5, 0.65, -2.4
CCCCCn1c(=O)c(C(=O)NCc2ccco2)c(O)c2ccccc21
  5%, 10, -0.7, -0.2, 3.2, 0.75, 2.8
CC(C)(C)C(=O)N1Cc2ccccc2-n2nncc2C1
  1%, -8, -3.8, /, /, /, /
Cc1ccc(C2=CCNCC2)cc1
  4%, 0, -0.8, -0.3, -3.9, 0.67, 2.6
O=C1NC(=O)N(Cc2ccco2)C(=O)/C1=C\c1ccc(-c2ccc(F)cc2)o1
  ?, 47*, -0.1, -0.6, 0.1, /, /
CC(OC(=O)c1cn(C)c2ccccc12)C(=O)N(C)c1ccccc1 (centres undefined)
  9%, 0, -0.2, /, /, 0.71, 1.8
COc1cccc(N2C(=O)NC(=O)/C(=C/c3ccc4c5c(cccc35)CC4)C2=O)c1
  ?, /, /, 0.3, -5.9, 0.63, -66
COc1ccc(CN2CC3CC(C2)c2cccc(=O)n2C3)cc1OC (centres undefined)
  -4%, 5, -2.7, 0.6, 3.5, 0.7, 1.9
O=C(c1ccccc1)c1ccccc1N=Cc1c(O)[nH]c(=O)[nH]c1=O
  7%, -8, 3.7, -0.6, -2.2, 0.71, 0.6
Cc1cc(C=C2C(=O)NC(=O)NC2=O)c(C)n1-c1ccc2c(c1)OCO2
  ?, -5, 4.1, -0.5, 2.0, 0.61, -9.5
Cc1cc(C)cc(NC(=O)CCNC(=O)N2C[C@H]3C[C@@H](C2)c2cccc(=O)n2C3)c1
  /, 5, 4.3, -0.4, -4.2, 0.75, 1.5
O=C(Nc1cccc(Cl)c1)c1c(O)c2c(n(Cc3ccco3)c1=O)CCCC2
  /, /, /, /, 0.1, 0.68, -3.0
CC1(C)OC(c2ccccc2)=C/C(=C/C=C2C(=O)NC(=S)NC2=O)O1
  ?, /, /, -0.8, -0.5, 0.65, 9.4
CN(C)C(=O)Oc1ccc(C(=O)c2ccccc2)cc1
  5%, -1, 0.9, -1.4, -15, 0.62, 0.3
Cc1nn(Cc2ccccc2)c(C)c1C(=O)OCC(=O)NC1CCS(=O)(=O)C1 (centres undefined)
  -1%, 7, -1.3, 0.2, 0.6, 0.68, 3.6
O=C1C2CCCN2C(c2cccnc2)N1c1nccs1 (centres undefined)
  0%, -4, -0.8, 0.0, -1.4, 0.7, -0.9
COc1ccc2c(c1O)-c1cccc3c1[C@@H](C2)N(C)CC3
  /, 1, -3.4, -0.6, -3.3, /, -4.7

(next part)
Every second line gives: Vif A3G, B2AR ag, HNF4A DNA FP, Bfl-1 A1 inh, LANA-H2B inh, E coli growth, UCH37 DUB inh
CCN(CC)CCCN=C(C)c1c(O)n(C2CCCCC2)c(=O)[nH]c1=O
  2%, -3, 4.3, 0.4, -1.2, 0.71, -0.6
Cc1ccc(OCCOc2cccc(C=C3C(=O)NC(=O)NC3=O)c2)c(C)c1
  /, -8, -2.1, -9.7, -0.7, /, /
O=P(O)(Oc1ccccc1)OC(c1ccccc1)C(F)(F)F (centres undefined)
  7%, -7, 2.2, -0.6, -1.5, 0.65, 3.0
COC(=O)C1=C(c2ccc(-c3ccccc3)c(F)c2)C[C@@H]2CC[C@H]1N2C(=O)NC1Cc2ccccc2C1
  /, 1, -0.8, 0.4, -1.0, /, 5.0
CC12C=CC(=O)C=C1CC(O)C1C2CCC2(C)C1CCC2(C)O (centres undefined)
  -4%, -6, 0.6, /, /, 0.68, -0.3
COc1cc2c(cc1OC)-c1c(OC)c(OC)c(OC)c3ccnc(c13)C2=O
  2%, /, /, 0.7, 7.5, /, 1.1
CCOc1cc2c(cc1OCC)-n1cccc1C(c1ccc(OC)c(O)c1)NC2 (centres undefined)
  7%, 3, -2.1, 0.5, 0.9, 0.67, 2.5
COc1ccc(CN2CCN(c3ccccc3F)CC2)cc1O
  -4%, -3, 5.1, -0.5, -0.1, 0.7, 5.4
COC(=O)C1=C(N)Oc2c(c(=O)oc3ccccc23)C1c1cccnc1 (centres undefined)
  21%, -26, -2.7, -0.1, -2.3, 0.71, 6.1
Cc1ccc(C(=O)NC2CC3CCC(C2)N3)cc1 (centres undefined)
  -8%, -3, -5.2, 0.1, -7.0, 0.68, 4.0
C[N+]1(CC2COC(c3ccco3)O2)CCCCC1 (centres undefined)
  3%, -9, 2.4, 0.4, -2.2, 0.73, 0.9
Cc1cc(C)n2nc(SCC(=O)N3CCC4(CC3)OCCO4)nc2n1
  2%, -2, -2.7, 0.4, -2.2, 0.67, -0.9
Cc1cc(OCC(=O)NCc2ccncc2)c2c3c(c(=O)oc2c1)CCC3
  /, 4, 3.6, 0.9, 16*, 0.71, -42
Cc1cccc(N=C2c3cc([N+](=O)[O-])ccc3-c3c2cc([N+](=O)[O-])cc3[N+](=O)[O-])c1
  -5%, -1, 1.5, /, /, 0.63, 9.5
CCC(=Nc1ccc2c(c1)CCC2)c1c(O)n(C2CCCCC2)c(=O)[nH]c1=O
  2%, -7, -1.6, -0.6, -3.1, 0.76, 3.5
c1ccc(CCNCc2ccccc2)cc1
  /, 4, 1.2, -0.2, -3.8, 0.66, -0.3
CN1CCC(N(C)c2nc(-c3ccc([N+](=O)[O-])cc3)nc3ccccc23)CC1
  20%, 12, -8.0, /, /, /, /
COC(=O)C1=C(C(=O)OC)C2OC1c1cc3ccccc3cc12
  -10%, 17, -1.2, /, /, /, /
COC(=O)C1=C(c2ccc(OCc3ccccc3)cc2)C[C@@H]2CC[C@H]1N2C(=O)NCc1ccc(OC)c(OC)c1
  /, 1, -2.4, -0.9, 1.3, /, 2.3
COc1ccccc1/C=C1\C(=O)NC(=S)N(c2ccccc2)C1=O
  -2%, -6, 0.3, -0.5, -2.8, 0.7, 1.8
O=c1[nH]c(=S)n(C2CC2)c(O)c1C=Nc1ccc2c(c1)OCO2
  /, 1, 1.4, 1.2, -5.8, 0.68, 6.4
CN1C(=O)C(=Cc2sc(=O)n(-c3ccccc3)c2N2CCCCC2)C(=O)N(C)C1=O
  13%, -8, 6.0, /, /, 0.67, 13
COc1cc(/C=N/n2cnnc2)ccc1OC(=O)N(C)C
  0%, 11, 2.1, 1.0, -7.5, /, /
CNC(=O)Nc1ccc(C(O)(C(=O)OC)C(F)(F)F)cc1 (centres undefined)
  ?, 0, 3.6, -0.3, 1.2, 0.63, 2.3
NC1=Nc2ccccc2Oc2ccccc21
  -4%, -5, -3.6, 0.6, 3.4, 0.65, 2.1
Cc1ccc(C(c2nnnn2Cc2ccccc2)N2CC=C(c3ccc(F)cc3)CC2)cc1 (centres undefined)
  ?, 10, 3.6, 0.0, -5.3, 0.71, 3.0
COc1ccc(C(=O)CN2CCOCC2)cc1F
  19%, 5, -0.7, 0.2, 0.4, 0.69, 5.1
CN1CCN(c2ccc(N)cc2)CC1
  16µM*, 6, 23, 0.0, 3.9, 0.67, 5.0
COC(=O)C1=C(c2ccc(S(C)(=O)=O)cc2)C[C@@H]2CC[C@H]1N2C(=O)NCc1ccc(C(F)(F)F)cc1
  /, 2, 1.0, 0.5, -1.0, /, 2.5
O=C(Nc1ccc(C(F)(F)F)cc1)c1cccn(Cc2ccc3c(c2)OC(F)(F)O3)c1=O
  1%, -1, 1.4, 0.1, 1.3, 0.69, 3.5

Continued.
Every second line gives: Vif A3G, B2AR ag, HNF4A DNA FP, Bfl-1 A1 inh, LANA-H2B inh, E coli growth, UCH37 DUB inh
CCN(CC)CCOC(=O)c1cc2cc(COC)ccc2o1
  5%, 1, 1.2, -0.9, 0.7, 0.79, 3.3
Cc1nc2c(c(=O)[nH]1)C(c1ccc([N+](=O)[O-])cc1)c1c(c3ccccc3oc1=O)O2 (centres undefined)
  30%, /, /, 0.2, 9.1, 0.66, 4.7
O=C(c1cc([N+](=O)[O-])ccc1N1CCNCC1)N1CCOCC1
  /, -1, 3.2, 1.9, -2.1, 0.68, 9.9
O=C(Nc1cccc(Cl)c1)OCC#CCN1CCCC1
  14%, -2, -0.7, /, /, /, /
CCOP(=S)(NN(Cc1ccccc1)C(=O)c1ccccc1)OCC
  /, 5, 2.1, -0.4, 0.9, 0.64, 2.1
CCOC(=O)c1ccc(N=C(CC)c2c(O)n(C)c(=O)n(C)c2=O)cc1
  -3%, -3, 4.4, 1.1, 1.7, 0.66, 6.8
O=C(Cn1ncc2c3ccccc3n(Cc3cccc(Cl)c3)c2c1=O)N1CCC2(CC1)OCCO2
  -2%, 26, 0.7, -0.5, -13, 0.76, 0.3
COP(=S)(OC)SCn1nnc2ccccc2c1=O
  -1%, -7, 21, /, /, 0.64, 0.4
Cc1ccc(CN2CCCN(Cc3ccc(Cl)cc3)S2(=O)=O)cc1
  -5%, 24, 0.2, -0.6, -1.8, 0.65, 1.5
O=c1c2ccccc2nc(/C=C/c2ccc(O)c(O)c2)n1-c1ccccc1
  16%, 3, 16, 0.2, 1.0, 0.7, -21
O=C1CN(O)C(c2ccccc2Cl)=c2cc(Br)ccc2=N1
  -3%, -10, 2.1, 1.2, -3.2, 0.67, 1.9
O=C1NC(=O)N(Cc2cccs2)C(=O)/C1=C/c1ccc(N2CCOCC2)cc1
  6%, 6, 1.9, -0.1, 0.1, 0.64, 4.6
Cc1cccc(C)c1NC(=O)CN(C)CC(=O)Nc1ccc(C#N)c(Cl)c1
  -1%, 10, -6.4, 0.3, 2.5, 0.7, 3.9
CCOc1ccc2nc(N=Nc3c(O)[nH]c(=S)[nH]c3=O)sc2c1
  -1%, 1, 7.5, -4.0, -0.1, /, /
COC(=O)N(c1ccccc1)P(=O)(Oc1ccccc1)Oc1ccccc1
  4%, -1, -3.1, 0.2, -5.0, 0.65, 2.7
CN1CCN(/N=C/c2c[nH]c3ccccc23)CC1
  1%, -1, 7.0, 1.1, -0.2, /, /
